Sfp PPTase inh: inhibitors of Bacillus subtilis Sfp phosphopantetheinyl transferase. Biochemical Sfp PPTase activity, qHTS. Q9F4F7. Potency, µM, for the others: max response, negative = inhibition, most hits filed as inhibitors. 310,000 compounds, 3.5% hits; active = well fitted inhibition curve with a large enough effect; inconclusive = small, poorly fitted or top-dose-only effect, or another doubt; inactive = no such curve, though single readings can be large or run the other way;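 also: the enzyme is Sfp with the accession as filed and its product quenches rhodamine fluorescence; potency is read from the fitted curve at half-maximal effect; 0% = enzyme reaction without inhibitor and -100% = no enzyme wells; top concentration of the series not given in the record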
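Fluorescence-quenching assay with 15 nM Sfp, 5 uM rhodamine-CoA and 12.5 uM BHQ-2-labelled ybbR peptide in pH 7.6 Hepes/MgCl2 buffer. Enzyme was pre-incubated with compound for 15 min at room temperature. Rate was taken from the 30-min fluorescence change (525/598 nm).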
D2 potentiator: human D2 receptor positive allosteric modulation. P14416. potentiation, % (no concentration beside the values). DiscoveRx D2 beta-arrestin cells, luminescence, 90 min; 100% = 57 uM dopamine signal. 360,000 compounds, 0.23% hits; active = potentiation of 50% or more; inconclusive = 30% to 50%; inactive = 30% or less;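 also: compound concentration not given in the record; tested on top of an EC20 dose of dopamine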
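D2 cells co-treated with compound plus 50 nM dopamine (EC20) for 90 min at 37 deg C to detect potentiation. Beta-arrestin recruitment was read as enzyme-fragment luminescence after 1 h at ambient temperature. Full response was set by 57 uM dopamine.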
ClpP mod: qHTS Assay for Activators of ClpP; ATP-dependent Clp protease proteolytic subunit (Bacillus subtilis (strain 168)), P80244; purified B. subtilis ClpP, FRET peptide cleavage, 20 min; Potency, µM (highest dose often 57.5 µM), without a hit: at the highest dose activity change, negative = active; 340,000 compounds, 1.9% hits; AID 651965, 2013; active = well fitted falling curve with a large enough effect; inconclusive = small, poorly fitted or top-dose-only effect; inactive = no such curve, though single readings can be large or run the other way; also: potency is read from the fitted curve at half-maximal effect; the source files actives as falling curves though it sought activators and does not explain the sign; nearly all actives have a fitted effect of over 65% in size; many hits overshoot -100%
Target sequence (P80244 whole entry, looked up): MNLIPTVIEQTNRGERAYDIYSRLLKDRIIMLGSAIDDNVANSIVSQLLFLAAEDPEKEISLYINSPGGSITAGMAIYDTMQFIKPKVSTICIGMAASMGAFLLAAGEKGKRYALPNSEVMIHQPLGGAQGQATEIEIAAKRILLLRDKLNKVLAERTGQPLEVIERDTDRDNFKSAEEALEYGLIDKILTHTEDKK
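FRET quenching reversal measured ClpP activation: 10 microg/mL B. subtilis ClpP at pH 8 with the FRET-FV decapeptide, read at 430 nm after 320 nm excitation. The 20-min minus 0-min signal was scaled between DMSO/no-enzyme wells and ADEP (5.8 microM final).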
gsp ag: agonists of gsp mutant (McCune-Albright syndrome) | Potency, µM (series often up to 76.9 µM), for inactives: at the top dose activation (cAMP increase), hits mostly activators | AID 624287 | gsp mutant cells, cAMP HTRF, 30 min; control for the full effect not named in the record | 340,000 compounds, 0.13% hits; active = well fitted activation curve with a large enough effect; inconclusive = small, poorly fitted or top-dose-only effect, or another doubt; inactive = no such curve, though single readings can be large or run the other way; cell line not stated here;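 also: phosphodiesterase inhibitor Ro 20-1724 added with compounds to block cAMP breakdown; potency is read from the fitted curve at half-maximal effect; nearly all actives have a fitted effect of over 60% in size; about a fifth of the inactives were tested at one dose only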
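Cells in DMEM/10% FBS with G418 were pretreated with compounds in DMSO plus […] (300 uM stock) for 30 min at 37C. cAMP was measured by HTRF (cAMP-d2 plus anti-cAMP antibody-K) after 30 min at room temperature.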
gsp antag: antagonizes gsp, the McCune-Albright syndrome mutation; gsp-mutant cells, cAMP HTRF, 30 min; control for the full effect not named in the record; AID 624288; Potency, µM (top dose mostly 76.9 µM), for the others: at the highest dose activity change, negative = inhibition, most hits filed as inhibitors; 340,000 compounds, 0.4% hits; active = falling curve of any shape with a large fitted effect; inconclusive = falling curve, mostly with a smaller effect; inactive = flat or rising curve; cell line not stated here;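 also: intracellular cAMP measured with PDE inhibitor Ro 20-1724 present during compound exposure; potency is read from the fitted curve at half-maximal effect; % is scaled to controls: 0 for no effect and ±100 for the full control effect; nearly all actives have a fitted effect of over 65% in size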
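G418-selected cells were plated in DMEM/10% FBS for 16-24 h at 37C, then treated with compounds plus the PDE inhibitor […] (300 uM solution added) for 30 min at 37C. Intracellular cAMP was measured by HTRF after 30 min lysis at room temperature.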
Menin MLL FP FL: displaces fluorescein MLL peptide from human menin. Fluorescence polarization, fluorescein-MLL peptide displacement from menin. FP activity change, % at 61.4 µM. 290,000 tested, under 10 active; inconclusive = falling polarisation curve, or a change in total fluorescence; inactive = total fluorescence flat and polarisation flat or rising; no compound was filed as active; the % refers to the polarisation; negative = inhibition;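 also: % of control where 0% means no effect; inhibitors lower the polarisation; unlabelled MLL peptide was the positive control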
TRPV1 potentiator: enhances activation of the human vanilloid receptor TRPV1; Q8NER1; TRPV1-expressing cells, Fluo-8 calcium influx, capsaicin EC20 potentiation; host cell line not named in the record; control for the full effect not named in the record; potentiation, % at 8.33 µM; 320,000 compounds, 0.02% hits; AID 540277; active means potentiation above 80%; inconclusive means 30% to 80%; inactive means below 30%; also: 0% is about no effect
Target sequence (Q8NER1 whole entry, looked up): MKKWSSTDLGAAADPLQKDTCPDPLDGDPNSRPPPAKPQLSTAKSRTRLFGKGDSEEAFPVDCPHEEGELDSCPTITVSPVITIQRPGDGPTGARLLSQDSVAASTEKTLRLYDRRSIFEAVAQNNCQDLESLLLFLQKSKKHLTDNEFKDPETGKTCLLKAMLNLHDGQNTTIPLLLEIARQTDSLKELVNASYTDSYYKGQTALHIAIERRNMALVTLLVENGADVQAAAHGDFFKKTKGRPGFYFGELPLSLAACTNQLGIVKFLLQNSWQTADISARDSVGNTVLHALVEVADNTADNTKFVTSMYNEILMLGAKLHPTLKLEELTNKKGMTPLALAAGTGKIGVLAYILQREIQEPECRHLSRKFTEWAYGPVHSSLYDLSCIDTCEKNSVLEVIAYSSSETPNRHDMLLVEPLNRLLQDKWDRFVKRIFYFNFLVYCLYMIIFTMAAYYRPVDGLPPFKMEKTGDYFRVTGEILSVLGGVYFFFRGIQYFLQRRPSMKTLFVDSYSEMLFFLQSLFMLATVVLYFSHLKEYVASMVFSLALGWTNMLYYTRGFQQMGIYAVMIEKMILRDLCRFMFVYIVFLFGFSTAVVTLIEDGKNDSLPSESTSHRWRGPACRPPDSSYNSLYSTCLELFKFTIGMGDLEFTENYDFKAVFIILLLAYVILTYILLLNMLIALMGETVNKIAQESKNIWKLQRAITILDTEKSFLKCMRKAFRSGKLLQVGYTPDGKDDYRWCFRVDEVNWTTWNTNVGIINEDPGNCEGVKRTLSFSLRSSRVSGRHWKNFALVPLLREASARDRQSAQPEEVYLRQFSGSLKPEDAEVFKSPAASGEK
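Fluo-8 calcium influx in TRPV1-expressing cells, kinetic read (ex 480/em 520 nm). Compound added and read 3 min for agonist activity, followed by capsaicin at EC20 final and 2 min further read for enhancement.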
* marks the source's active call; other numbers are inactive results; ? = inconclusive; nt = not tested or not shown; [ ] = remark or other dose.

The line under a structure holds: Sfp PPTase inh	D2 potentiator	ClpP mod	gsp ag	gsp antag	Menin MLL FP FL	TRPV1 potentiator
1. Cc1ccc(Nc2nc(NCCO)nc3c2cnn3C)cc1Cl
  3%	0	-7.4%	?	-7%	-7.0	0
2. N/C(Cc1cccs1)=N\OC(=O)COc1ccc(Br)cc1Cl
  10%	-2	-0.3%	-42%[inhibitor]	-2%	-2.6	-7
3. CC(C)C1CC(CCN)(Cc2ccccc2)CCO1 (stereo not given)
  ?	-3	nt	1%	12%	0.9	13
4. O=c1oc2ccccc2n1Cc1ccccc1Cl
  -4%	0	0.0%	-68%[inhibitor]	-1%	-5.0	-3
5. CCN(CC(=O)Nc1ccc(NC(C)=O)cc1)C(=O)c1ccc(COc2ccccc2)o1
  nt	-3	1.1%	-26%	1%	nt	5
6. Cc1cccc(N(CC(=O)N2CCCCCC2)S(C)(=O)=O)c1
  7%	-43	0.7%	24%	8%	-5.5	-23
7. CS(=O)(=O)c1ccc(-c2cn3cc(C(=O)O)ccc3n2)cc1
  18%	-4	nt	59%[15.4 µM]	6%	-1.2	1
8. O=C(N/N=C/c1ccccc1F)C(=O)N1CCCCCC1
  8%	-6	nt	22%	5%	0.7	10
9. COc1ccc(OCC(O)CN2CCN(Cc3ccc4c(c3)OCO4)CC2)cc1 (stereo not given)
  15%	-26	-0.9%	-4%	10%	9.9	-12
10. Cc1ccsc1C(=O)NNC(=O)c1ccccc1F
  nt	-15	?	9%	7%	nt	nt
11. CC1CCN(C(=S)c2ccc([N+](=O)[O-])cc2)CC1
  45µM*	-12	1.6%	-18%	-6%	3.9	-16
12. CC(=O)N1CC=C2C(C#N)=C(N)C(C#N)(C#N)[C@H](c3ccoc3)[C@H]2C1
  7%	-15	-5.3%	-13%	1%	?	-6
13. CCN(CC)CCNC(C(=O)Nc1ccc([N+](=O)[O-])cc1Br)c1ccccc1 (stereo not given)
  -1%	-8	0.6%	0%[15.4 µM]	15%	0.3	-3
14. O=Cc1cccc(OCc2cccc3ccccc23)c1
  -2%	-6	1.8%	15%[15.4 µM]	4%	6.0	0
15. Cc1cccc2c(=O)c(C(=O)NCc3ccc(F)cc3)c[nH]c12
  12%	-5	-1.4%	4%[15.4 µM]	0%	0.6	-1
16. C[C@H](O)[C@@H]1C(=O)N2CCc3ccc(-c4ccccc4)cc3[C@@H]2C[C@@H]1N(C)C(=O)c1cccnc1
  nt	3	0.3%	?	nt	nt	nt
17. COc1ccc([C@@H](NC(=O)OC(C)(C)C)C(=O)OC(C)(C)C)cc1
  nt	-8	-0.7%	-21%	1%	nt	-17
18. O=C(NC1CCCCCC1)c1ccccc1-c1ccccc1
  2%	-11	-2.1%	20%	-8%	0.4	-17
19. O=C(CSc1nnc(-c2ccco2)n1Cc1ccccc1)NC(=O)NCc1ccccc1
  -14%	8	0.2%	-21%	-34%	-2.3	10
20. CCOc1ccc(C)cc1S(=O)(=O)n1nc(C)cc1C
  9%	-6	nt	5%	-1%	-2.5	-1
21. COc1ccc(Nc2nc3ccccc3n3nnnc23)cc1
  15%	-4	315%	-32%[inhibitor]	-2%	-1.7	1
22. CC(C)NC(=O)c1onc(CSc2cccc(Cl)c2)c1C(=O)O
  17%	-19	0.5%	nt	4%	-1.0	2
23. CN1CCc2c(sc3c2C(=O)NC(c2ccc(-c4ccc(Cl)cc4)o2)N3)C1 (stereo not given)
  50µM*	-21	nt	9%[15.4 µM]	-6%	?	-4
24. CC(C)c1ccc(OCC(O)Cn2cnc3ccccc32)cc1 (stereo not given)
  10%	21	28µM*	5%	-7%	6.0	15
25. C/C(=N\NC(=O)c1ccccc1O)c1ccc(NC(=O)c2ccccc2)cc1
  -1%	2	-6.1%	-35%[inhibitor]	-16%	nt	-1
26. CCn1c(C)nc2cc(C(N)=O)ccc21
  10%	-30	-4.5%	?	5%	1.7	13
27. CCOc1ccc(NC(=O)C2C3CCC4C(CCC32)C4(Cl)Cl)cc1 (stereo not given)
  9%	-9	-1.9%	1%	2%	1.3	0
28. O=C(Cn1c(SCC(=O)N2CCc3ccccc32)nc2ccccc21)NC1CCCC1
  8%	-13	2.6%	?	28%	-1.0	-22
29. COCCNC(=O)c1ccc(-n2c(SCc3cccnc3)nc3ccccc3c2=O)cc1
  9%	-6	nt	-7%[15.4 µM]	-23%	-1.8	8
30. Cc1cc(C=NCCO)c(C)n1-c1cc(Cl)ccc1Cl
  6%	0	nt	-5%[15.4 µM]	13%	2.2	-1
31. COC(=O)C1C(=O)/C(=C(/C)N2CCCC2)C(=O)CC1(C)C (stereo not given)
  12%	-8	-1.4%	5%	4%	7.6	3
32. CCOc1ccccc1NC(C)C(=O)NC(=O)NC1CCCCC1 (stereo not given)
  nt	-5	1.5%	19%	-1%	nt	-9
33. CCN1CCN(CC(=O)N2CCCC(C(=O)c3ccc(Oc4ccccc4)cc3)C2)CC1 (stereo not given)
  -20%	14	0.3%	-3%	10%	-4.1	1
34. CCCC1=NN2C(=N)/C(=C\c3cc(C)n(-c4cccc(C)c4)c3C)C(=O)N=C2S1
  -19%	-5	-4.1%	?	2%	nt	-7
35. O=C(CN1CCN(S(=O)(=O)c2ccc(F)cc2)CC1)NC1CC1
  16%	4	0.3%	-1%	12%	nt	10
36. Cc1cc(C)c2nc(NC(=O)[C@@H](NC(=O)c3cccc(S(=O)(=O)N4CCOCC4)c3)C(C)C)sc2c1
  -5%	-34	1.6%	-21%	-12%	9.6	-8
37. COc1cc(C2c3[nH]c4ccccc4c3C[C@H]3C(=O)N(C4CC4)CC(=O)N23)ccc1OC(C)C (stereo not given in full)
  10%	-3	nt	-2%	5%	-0.7	0
38. O=C(c1ccccc1)N1N=C(C(F)(F)F)CC1(O)c1ccccc1 (stereo not given)
  5%	-12	-2.1%	-1%	-4%	-0.5	-4
39. Cc1c(-n2c(SCC(=O)C(C)(C)C)nc3ccccc3c2=O)c(=O)n(-c2ccccc2)n1C
  5%	-12	-2.3%	-21%[15.4 µM]	5%	3.8	30
40. CCCc1cc(=O)[nH]c(SCC(=O)N2CCC(C(=O)OCC)CC2)n1
  16%	1	-0.7%	-80%[inhibitor]	4%	-0.3	28
41. O=C(c1cc(-c2ccc(Cl)s2)nc2ccccc12)N1CCCC1
  nt	-12	32µM*	27%	-8%	nt	nt
42. CCc1nc(SCC(=O)Nc2nnc(C(C)C)s2)n[nH]1
  nt	-2	nt	19%[15.4 µM]	0%	nt	nt
43. COc1ccc(N2C(=O)C(Cl)=C(Nc3ccccc3O)C2=O)cc1
  45µM*	12	32µM*	-2%	-8%	-0.7	3
44. CCOc1cc(/C=N/NC(=O)C(=O)NCc2cccnc2)ccc1O
  -1%	1	nt	-3%	-6%	1.7	13
45. O=C(CSc1nnc(-c2cccc(Br)c2)o1)N1CCNC1=O
  nt	2	1.2%	-4%	-12%	nt	nt
46. COc1ccccc1C(=O)NNC(=O)c1ccc(NC(=O)C(C)C)cc1
  10%	5	nt	-14%[15.4 µM]	-9%	1.9	-15
47. CC(C)CN(C(=O)CN(C)CC(=O)Nc1ccc(Cl)c(C(F)(F)F)c1)c1c(N)n(CC(C)C)c(=O)[nH]c1=O
  nt	-8	nt	17%	-6%	nt	nt
48. O=C(Nc1nc(-c2cccnc2)cs1)c1cccc([N+](=O)[O-])c1
  -28%	-18	nt	10%[15.4 µM]	3%	2.0	15
49. O=C1CC(c2ccccc2)n2nc(NC(=O)c3cccs3)nc2N1 (stereo not given)
  -1%	17	-1.7%	-10%	19%	0.2	20
50. COCCn1c(C)cc(C(=O)COC(=O)c2c(C)nn(Cc3ccccc3)c2C)c1C
  -1%	4	11%	6%	-11%	2.1	-8
51. C=CCN(C(=O)CC(NC(C)=O)c1ccccc1)c1nc(-c2ccc(S(C)(=O)=O)cc2)cs1 (stereo not given)
  7%	-4	3.7%	-4%	-18%	2.1	12
52. O=C(Nc1ccc(Cl)c(Cl)c1)C1CC(=O)N(c2ccc(Br)cc2)C1 (stereo not given)
  ?	-19	-0.8%	?	-11%	6.0	15
53. O=c1c(Cl)c(NS(=O)(=O)c2ccccc2)cnn1-c1ccccc1
  26%	3	-2.9%	?	4%	2.8	1
54. O=C1C2C(c3ccccc3)=NN(c3ccccc3)C2C(=O)N1c1ccccc1 (stereo not given)
  8%	-28	28µM*	29%	9%	8.5	29
55. O=C(c1ccc(Cl)s1)N1CCCC1
  -28%	-3	1.1%	?	8%	-1.3	-30
56. Nc1nc(CN2CCN(Cc3ccccc3)CC2)nc(Nc2ccc3c(c2)OCCO3)n1
  -5%	-32	0.1%	-49%	11%	-0.2	1
57. CCOC(=O)C1=C(C)c2ccccc2OC1(CC)C(=O)OCC (stereo not given)
  -5%	nt	-1.1%	nt	0%	5.1[94.6 µM]	nt
58. COc1ccc(Nc2nnc(SCC(=O)Nc3cc(C)on3)s2)cc1
  3%	3	0.7%	?	3%	0.8	-6
59. O=C(CCNC(=O)c1ccco1)Nc1cccc(C(F)(F)F)c1
  7%	-4	nt	19%	-11%	-0.3	-10
60. O=C(CCNC(=O)N1CC(=O)Nc2ccccc21)NCc1ccccc1Cl
  nt	-24	0.9%	21%	nt	nt	nt
61. CC(=O)OCC(OC(C)=O)C(OC(C)=O)C(OC(C)=O)C(=O)Nc1ccccc1C (stereo not given)
  -3%	-1	-3.7%	13%	9%	-0.8	2

Screening data as filed in PubChem BioAssay.
